Compound activity (PubChem BioAssay)
Anthrax LT inh: inhibitors of anthrax lethal toxin internalization; Cells, anthrax lethal toxin internalization, FRET ratio (460/530); Potency, µM (highest dose often 40 µM), for inactives: at the highest dose activity change, negative = inhibition, most hits filed as inhibitors; actives 0.67% (n = 70,000); active = well fitted falling ratio curve with the 530 nm signal flat; inconclusive = other ratio curves, or a change in one channel alone; inactive = flat curves in the ratio and both channels; the % refers to the ratio; note: % is set by controls: 0 for no effect and ±100 for the full control effect; nearly all actives have a fitted effect of over 50% in size; tested in ME-180 cells; beta-lactamase reporter
SmPrx2 inh: Schistosoma mansoni Prx2 inhibition | actives 0.07% (n = 65,000) | S. mansoni Prx2 activity coupled to TGR/GSH (TGR is thioredoxin glutathione reductase), NADPH fluorescence loss, qHTS; some inactives read as strong as hits | Potency, µM; active means full or partial inhibition curve with a strong effect at the top dose; inconclusive means weaker partial or single-point curve; inactive means no accepted curve; note: series up to 57 µM; many of its hits are not listed in these tables
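Enzyme mix: 100 uM NADPH, 25 nM TGR, 700 uM GSH, 50 nM Prx2 in 100 mM phosphate pH 7.4, 10 mM EDTA, 0.01% Tween-20. 15 min RT with compound; NADPH/GSH added, H2O2 starts reaction; NADPH fluorescence read 8 min.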
* marks the source's active call; other numbers are inactive results; ? = inconclusive; / = not tested or not shown; & = joins results of further samples; ! = repeats disagree; [ ] = remark or other dose. Potency is the fitted concentration of half-maximal effect. An excerpt; count on the stated rates, not on these rows.

No.	SMILES	Anthrax LT inh	SmPrx2 inh
1	CCN(CC)S(=O)(=O)c1ccc2c(c1)nc(CCC(=O)OCC(=O)N1CCc3ccccc31)n2C	11%	>57
2	CCOC(=O)n1ccn(C)c1=S	-6%[3.58 µM]	>26
3	CC1CC1C(=O)OCC(=O)NCc1ccccc1Cl (configuration not stated)	7%	>57
4	O=C1c2ccccc2C(=O)N1CCC(c1ccc(F)cc1)c1ccco1 (configuration not stated)	?	>57
5	O=C(Nc1nccs1)c1cc2sccc2n1Cc1ccc(F)cc1	-15%	>57
6	CC(=O)N1CCN(c2ccc(Nc3ncnc4c3oc3ccccc34)cc2)CC1	?	>57
7	O=C(CCc1ccccc1)Nc1ccc(Cl)cn1	-17%	>57
8	N#Cc1ccc(NC(=O)Nc2ccc(Cl)cc2)cc1	4µM*	>57
9	Cc1cc2nc(-c3ccc(SCC(=O)N4CCN(C(=O)c5ccco5)CC4)nc3)[nH]c2cc1C	?	>57
10	CC(=O)c1cccc(NC(=O)C2CCN(S(=O)(=O)c3ccc(C)cc3)CC2)c1	-13%	>57
11	O=C(C1CCCN1S(=O)(=O)c1cccc2cccnc12)N1CCn2c1nc1ccccc12 (configuration not stated)	-4%	>57
12	CCOC(=O)c1c(NC(=O)OC)sc2c1CCC2	-1%	>57

Quoted at random: two records from the list
No.	SMILES	Anthrax LT inh	SmPrx2 inh
9	Cc1cc2nc(-c3ccc(SCC(=O)N4CCN(C(=O)c5ccco5)CC4)nc3)[nH]c2cc1C	?	>57
2	CCOC(=O)n1ccn(C)c1=S	-6%[3.58 µM]	>26

Next results follow:
No.	SMILES	Anthrax LT inh	SmPrx2 inh
13	Cc1ccc(N2CCCCn3c2nc2c3c(=O)[nH]c(=O)n2C)cc1	?	>57
14	COc1ccccc1-c1cc(C(F)(F)F)nc(N2CCN(c3ccccc3)CC2)n1	-3%	>57
15	C[C@@H]1C[C@@H]2[C@H]3CCC4=CC(=O)C=C[C@]4(C)[C@]3(F)[C@@H](O)C[C@@]2(C)[C@@]1(O)C(=O)CO	?	>57&>57
16	CCCn1c(-c2ccc(F)cc2)nc2c(NC3CCN(Cc4ccccc4)C3)nc(C)nc21 (configuration not stated)	?	/
17	O=C(NCCN1CCCCC1)c1ccc2c(c1)OCCO2	-4%	/
18	CCc1nnc(NC(=O)Nc2ccccc2OC)s1	0%	/
19	COc1cc(NC(=O)c2onc(C)c2Cl)c(OC)cc1Cl	4%	>57
20	CCCCCC/C(C=O)=C\c1ccccc1	-4%	/
21	NS(=O)(=O)c1ccc(N=Cc2c(O)n(C3CCCCC3)c(=O)n(C3CCCCC3)c2=O)cc1	?	/
22	CCN1C(=O)N(CC)C2C1N(C(C)=O)C(=O)N2C(C)=O (configuration not stated)	-2%	>57
23	Cc1cc(C(F)(F)F)nn1CC(=O)NCc1ccccc1	0%	>57
24	O=C(NCc1ccco1)c1cc2nc(C3CC3)cc(C(F)(F)F)n2n1	-8%	>57

Values in list order from the list.
Nos. 16–24 in Anthrax LT inh, in turn: ?, -4%, 0%, 4%, -4%, ?, -2%, 0%, -8%

The list continues.
No.	SMILES	Anthrax LT inh	SmPrx2 inh
25	CCN1C(=O)[C@H]2[C@H]3[C@H](O)[C@H](O)C/C(=N/OC[C@@H](O)[C@H]4O[C@H]5OC(C)(C)O[C@H]5[C@@H]4O)[C@@H]3CC[C@@H]2C1=O	?	/
26	COc1c2ccoc2nc2c(OC)c(OC[C@H](O)C(C)(C)O)ccc12	13µM*!	>57&>57
27	COc1ccc2cc3[n+](cc2c1OC)CCc1cc2c(cc1-3)OCO2	?	>57
28	Cc1cc2occ(CC(=O)NC3=NCCS3)c2cc1C(C)C	-4%	>57
29	COC(=O)c1cc(Br)ccc1-c1ccc(/C=N/n2nnnc2N)o1	?	/
30	c1ccc(NCCSc2nc3ccccc3s2)cc1	-12%[8 µM]	>57
31	CCOc1ccccc1N(CC)C(=O)Cn1ncc2c(=O)oc3ccccc3c21	-16%	>57
32	CCn1cc(NC(=O)Nc2ccc(OC)c(OC)c2)c(C(N)=O)n1	-22%	>57
33	Cc1ccc(C(=O)CSc2nnc(Cn3nnc4ccccc43)n2C)cc1	-2%	>57
34	O=C(Cc1ccccc1)Nc1nc(-c2cccs2)cs1	?	>57
35	CCN=C1SC(C(=O)NCCc2ccccc2)CC(=O)N1CC (configuration not stated)	-13%	>57
36	COC(=O)c1ccccc1NC(=O)CSc1nc(O)cc(=O)n1C1CCCC1	-11%	>57
37	Cc1cccc(/N=C/c2c(O)n(-c3cc(Cl)ccc3N3CCOCC3)c(=O)c3ccccc23)n1	?	>57
38	COCCN(C(=O)CCCC(=O)Nc1ccccn1)C(C(=O)NC1CCCCC1)c1ccc(C)cc1 (configuration not stated)	9%	>57
39	Cc1cccc(-c2cc3nc4c(c(N5CCCC(O)C5)n3n2)CCC4)c1 (configuration not stated)	?	>57
40	CCOc1ccccc1N(CC(=O)NC1CCCCC1)S(C)(=O)=O	-1%	>57
41	Cc1ccc2c(c1)c1ncnc(N3CCC4(CC3)OCCO4)c1n2C	?	>57
42	O=C(CCn1nnc2ccccc2c1=O)N[C@H](C(=O)O)c1ccccc1	-3%	>57
43	COc1ccc(-c2cc(C(F)(F)F)nc(SCC(=O)Nc3cc(C)on3)n2)cc1	-3%	>57
44	O=C(c1cccc(F)c1)N1CCN(S(=O)(=O)c2ccccc2)CC1	18%	/
45	O=C(CCN1CCCCC1)Nn1c(=S)[nH]c2ccccc2c1=O	11%	>57
46	O=C(NCCSc1ccccc1)c1cccnc1	-9%	>57
47	COc1ccc(C(=O)Nc2c3c(nn2-c2cccc(Cl)c2)CS(=O)C3)cc1 (configuration not stated)	0%	>57
48	O=P(O)(CCP(=O)(O)c1ccccc1)c1ccccc1	16%[8 µM]	>57
49	COc1ccc(-c2cc3nc4c(c(N5CCC6(CC5)OCCO6)n3n2)CCCC4)cc1	8%	>57
50	COc1cc([C@@H]2c3cc4c(cc3[C@@H](O[C@@H]3O[C@H]5CO[C@@H](C)O[C@@H]5[C@@H](O)[C@H]3O)[C@@H]3COC(=O)[C@@H]23)OCO4)cc(OC)c1O	-3%&-19%	>57&>57
51	CC(C)c1cc(CN2CCN(CCC#N)CC2)cc(C(C)C)c1O	-16%	>57
52	CCOC(=O)C1CCN(C(=O)COC(=O)c2ccc(Br)o2)CC1	5%	>57
53	C=CCn1c(C)cc(C(=O)CSc2nnc(NCc3ccccc3)s2)c1C	?	>57
54	COC(=O)c1cccc(CSc2nnc(C)s2)c1	-8%	>57
55	CCCCCCN(C(=O)CCCCCN1C(=O)NC(c2ccc(-c3ccccc3)cc2)C(C(=O)OCc2ccccc2)=C1C)C(C(=O)NCCCC)c1ccccc1 (configuration not stated)	5%	/
56	CCOC(=O)c1c(C)noc1CP(=O)(c1ccccc1)c1ccccc1	?	>57
57	Cc1c(C(=O)N2CCOCC2)sc2nc(-c3ccccc3)cn12	6%	>57
58	CC(C)OC(=O)c1cc2c(OC[C@@H](O)CNC(C)(C)C)cccc2[nH]1	-23%	>57
59	CC(C)C[C@H](NC(=O)[C@@H]1O[C@H]1C(=O)O)C(=O)NCCCCN=C(N)N	-1%	>57
60	CC1CCC2C(=O)N3C(CCC(C)C3c3ccc(-c4ccco4)cc3)C(=O)N2C1c1ccc(-c2ccco2)cc1 (configuration not stated)	-25%[8 µM]	/
61	N#Cc1ccccc1Cn1cc(C(=O)C2CC2)c2ccccc21	-1%	>57
62	c1ccc(N(c2ccccc2)c2nc(N3CCOCC3)nc(N3CCOCC3)n2)cc1	-6%	>57
63	CCS(=O)(=O)N1CCC(C(=O)NCc2cccc(OC)c2)CC1	2%	>57
64	O=C(CC(O)(c1ccccc1)C(F)(F)C(F)F)c1cccs1 (configuration not stated)	-11%	>57
65	CCn1c(SCC(=O)Nc2cccc(F)c2)nc2c(c1=O)SC(C)C2 (configuration not stated)	?	>57
66	COc1ccc(OC)c(NC(=O)C23CCC(C)(C(=O)C2)C3(C)C)c1 (configuration not stated)	?	>57
67	CCOC(=O)N1CCN(C(=O)C(NC(=O)c2ccc(CC)cc2)C(C)C)CC1 (configuration not stated)	5%	>57
68	O=C(Nc1nc(-c2ccco2)c(-c2ccco2)s1)C1CC(=O)N(c2ccc3c(c2)OCCO3)C1 (configuration not stated)	?	>57
69	COc1cccc(-n2c(COc3ccccc3C)nnc2SCC(=O)O)c1	5%	>57
70	CCn1c(N2CCC(C)CC2)nc2c1c(=O)n(C)c(=O)n2C	-15%	>57
71	CCCC(C)C(=O)Nc1cccc(NC(C)=O)c1 (configuration not stated)	-8%	/
72	CCOC(=O)c1c(C)[nH]c(C(=O)CSc2nnnn2-c2ccc(C)cc2)c1C	1%	>57
73	CCOC(=O)c1cccc(N2C(=O)C3C(C(=O)NC4CC4)C4(C)C=CC3(O4)C2C(=O)NC(C)(C)C)c1 (configuration not stated)	11%	>57
74	Cc1cccc(C2N(c3ccc(F)cc3)C(=O)C3CCCN32)c1 (configuration not stated)	11%	>57
75	CCc1ccc(Nc2cc(=O)n(C3CCCCC3)c(=O)[nH]2)cc1	-5%	>57
76	COc1ccc(C(=O)N(Cc2ccco2)Cc2cccs2)c(O)c1	-4%	>57
77	CC(=O)NC(Cc1c[nH]c2ccccc12)C(=O)N1CCc2ccccc2C1 (configuration not stated)	0%	>57
78	O=C(O)C(=O)/C=C(\O)c1ccc(Br)cc1	9%[8 µM]	>57
79	Cc1ccc(NC(=O)CC2SC3=NCCCN3C2=O)c(C)c1 (configuration not stated)	-20%	>57
80	COc1cccc(C2/C(=C(\O)c3ccc4c(c3)OCO4)C(=O)C(=O)N2CCN(C)C)c1OC (configuration not stated)	-3%	>57
81	C/C=C/Cn1c(SCc2ccc(Cl)cc2)nc2c1c(=O)[nH]c(=O)n2C	-11%	>57
82	O=C(c1cccc(C(=O)N2CCN(c3ccccc3)CC2)c1)N1CCN(c2ccccc2)CC1	?	/
83	Cn1cccc1C(=O)N1CCC2(CCCN(C(=O)Nc3cccc(F)c3)C2)CC1	6%	>57
84	C1=CC2CC1CC2CN1CCN(c2ccccc2)CC1 (configuration not stated)	-27%	>57

Following part
No.	SMILES	Anthrax LT inh	SmPrx2 inh
85	CCOc1ccc(N2CC(C(=O)Nc3ccc(S(=O)(=O)N4CCOCC4)cc3)CC2=O)cc1 (configuration not stated)	?	>57
86	CCOC(=O)c1cc(-c2ccco2)nc2c1c(C)nn2CCC#N	20%	>57
87	Cc1cc2ncn(/N=C/c3cccnc3)c2cc1C	4%	>57
88	CCOC(=O)OCC1OC(CCc2ccccc2)CCC1Oc1ccc(OC)cc1 (configuration not stated)	-8%[8 µM]	/
89	Cc1ccc(S(=O)(=O)Cn2nnnc2C(C(C)C)N2CCN(C(=O)c3ccco3)CC2)cc1 (configuration not stated)	-6%	>57
90	COCCN(Cc1cc2cccc(C)c2[nH]c1=O)C(=O)c1ccccc1	/	>57
91	CC(=O)N1CCN(c2ccc(N=Cc3c(O)n(-c4ccc(Cl)cc4)c(=O)[nH]c3=O)cc2)CC1	-15%	>57
92	Cn1c(=O)c2nncnc2n(C)c1=O	-2%	>57
93	Cc1cc(C)c(NC(=O)CSc2nnc(-c3ccncc3)n2Cc2ccco2)c(Cl)c1	?	>57
94	CSCCC(/C(O)=C(\C#N)c1nc2ccccc2[nH]1)N1C(=O)c2ccccc2C1=O (configuration not stated)	-24%	>57
95	O=c1ccnc(NCCc2ccccc2)[nH]1	?	>57
96	O=C(Nc1ccccc1)c1ccc(F)c(S(=O)(=O)N2CCOCC2)c1	1%	>57
97	COc1cc(-c2nnc(-c3ccco3)o2)ccc1OCc1ccccc1	-16%	>57
98	Cc1ccc(Cn2c(=N)c(C(=O)NCc3ccco3)cc3c(=O)n4ccccc4nc32)cc1	?	>57
99	Clc1ccccc1-c1nn2c(-c3ccncc3)nnc2s1	11%	>57
100	CC(C)[C@@H](CC(=O)N[C@@H]1CCCC[C@H]1C(=O)N[C@H](CC(=O)N[C@@H](CCC(=O)O)CC(=O)O)Cc1ccccc1)NC(=O)C[C@H](CO)NC(=O)[C@@H]1CCCC[C@H]1N	-15%	>57
101	CCCCn1c(SCC(=O)NCc2ccccc2)nc2ccc(N3CCOCC3)cc2c1=O	4%	>57
102	Cc1ccccc1CS(=O)(=O)CCC(=O)NCc1ccccn1	2%	>57
103	Cc1ccc(NC(=O)COC(=O)c2ccn(C)n2)cc1	-2%	>57
104	COC(=O)CSc1nnc(CNC(=O)c2cc(OC)c(OC)c(OC)c2)n1C	1%	>57
105	CCC1(COC(=O)Nc2cccc(Cl)c2)COC1	-21%	>57
106	COC(=O)COc1ccc(S(=O)(=O)Nc2ccc3c(c2)OCO3)cc1Cl	?	>57
107	O=C(OCCn1cncn1)c1cc2ccccc2oc1=O	-3%	>57
108	Cc1ccc2cc(CN(C(=O)c3ccncc3)C(C)C)c(=O)[nH]c2c1	?	>57
109	C[N+]1(C)CCO[C@](O)(c2ccc(-c3ccc([C@]4(O)C[N+](C)(C)CCO4)cc3)cc2)C1	-10%[3.58 µM]	>57
110	O=c1c2c(nc3cc(-c4ccc(F)cc4)[nH]n13)CCCC2	6%	>57
111	COc1ccc(OC(C)C(=O)N2CCOCC2)cc1 (configuration not stated)	-2%	>57
112	O=C1c2ccccc2C(Nc2ccc(-c3nc4ccccc4[nH]3)cc2)N1Cc1ccco1 (configuration not stated)	19%	>57
113	CCCC(=O)Nc1ccccc1-c1nnn(CC(=O)Nc2ccc(OCC)cc2)n1	-20%	>57
